High-throughput results: PubChem BioAssay, PCMD
Calb biofilm kill – clotrimazole potentiators killing C. albicans biofilm, primary screen, 4-compound mixtures. C. albicans biofilm persisters + clotrimazole, fluorescence viability; primary screen in compound mixtures of four per well. inhibition, % at 7.6 µM. actives 0.02% (n = 120,000);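 active = inhibition above 30.3% in the primary screen of four-compound pools, then above 30% when the compound was retested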;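 also: compounds exposed to preformed 24 h biofilms for 48 h; the number belongs to the whole pool; some results filed as inactive read as strong as hits; inactives centre near 12; 0% = biofilm with clotrimazole alone and 100% = kill control; retested singly at about 60 µM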
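Assay system: C. albicans biofilms / Medium: RPMI/MOPS medium, pH 7.0 / Schedule: biofilm formation 24 h, compound exposure 48 h, 37 °C / Measured by: Alamar Blue fluorescence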
An asterisk follows results filed as active. An excerpt (hit frequency here may not be typical).

| SMILES | Calb biofilm kill |
| --- | --- |
| COc1ccccc1OCCC(=O)NCc1ccc2c(c1)OCO2 | 3 |
| COc1c(C)cc(S(=O)(=O)N2CCOCC2)c(C)c1C | 9 |
| O=C(c1n[nH]c2ccccc12)N1CCCCC1 | 10 |
| Cc1ccccc1-n1ccnc1SCC(=O)NCc1ccco1 | 16 |
| Cc1cc(Cl)ccc1C(=O)C1CCCN(C(=O)c2cnsn2)C1 (stereo not given) | -1 |
| Cc1c(NC(=O)COc2cccc3c2OC(C)(C)C3)c(=O)n(-c2ccccc2)n1C | 15 |
| O=c1[nH][nH]c(-c2ccccc2)c1C=Nc1ccc(OC(F)(F)F)cc1 | 14 |
| Cc1cccc(C(=O)NC(=O)Nc2c(C)cc(C)nc2C)c1 | 17 |
| Cc1ccccc1Nc1sc(C(=O)Nc2cccc(Cl)c2)c(N)c1C(N)=O | 16 |
| O=C(N/N=C/c1cccnc1)C1CCCCC1 | 12 |
| Cc1noc(C)c1COc1cccc(C(=O)OC(C)C(=O)Nc2c(C)n(C)n(-c3ccccc3)c2=O)c1 (stereo not given) | 14 |
| COc1ccc(C)cc1NC(=O)COC(=O)Cc1ccc(-c2ccccc2)cc1 | 9 |
| CCN=C(NCC)SC1CC(=O)N(c2ccc(OCC)cc2)C1=O (stereo not given) | 13 |
| NS(=O)(=O)c1ccc(-c2ccc(/C=N/Nc3ccc(C(=O)O)cc3)o2)cc1 | 0 |
| COc1c(C(CC(C)C)OC(C)=O)ccc2c1C(=O)OCc1cc(C)cc(O)c1O2 (stereo not given) | 19 |
| COC(=O)C(CC(C)C)NC(=O)/C=C/c1ccccc1Cl (stereo not given) | 10 |
| COCCCNC(=O)c1ccccc1C(F)(F)F | 21 |
| COC(=O)c1cc(=O)nc2sc3cc(OC)ccc3n12 | 14 |
| Cc1c(NC(=S)NC(=O)c2ccc(Br)o2)c(=O)n(-c2ccccc2)n1C | 7 |
| CC1(C)CC(/C=C/c2ccccc2)=Nc2ccccc2N1 | 2 |
| O=C(NC1CCCCCC1)c1cccc(COCC(F)(F)F)c1 | -3 |
| CN1/C(=C\C(=O)Nc2ccc(Br)cc2)C(C)(C)c2ccccc21 | 10 |
| CCOc1[nH]n(-c2ccc(Cl)cc2)c(=O)c1C=NCC(=O)OC | 12 |
| Cc1ccccc1NC(=O)Cn1c([N+](=O)[O-])cnc1C | 14 |
| O=C(NCCc1c[nH]c2ccccc12)C(=O)NCC1CCCO1 (stereo not given) | 8 |
| CCN(CC)S(=O)(=O)c1cccc(C(=O)N[C@@H](C)c2nc3ccccc3[nH]2)c1 | 6 |
| O=C(/C=C/c1ccccc1)c1ccc2c3c(cccc13)CC2 | -6 |
| Cc1onc(-c2c(F)cccc2Cl)c1C(=O)Nc1cccc(S(=O)(=O)NCc2ccco2)c1 | 4 |
| CCOC(=O)C(=O)NNc1ccc(C)cc1 | 19 |
| CCc1nnc(NC(=O)CSc2nc(SC)ns2)s1 | 0 |

Two compounds drawn at random from those above:
| SMILES | Calb biofilm kill |
| --- | --- |
| O=C(N/N=C/c1cccnc1)C1CCCCC1 | 12 |
| Cc1cc(Cl)ccc1C(=O)C1CCCN(C(=O)c2cnsn2)C1 (stereo not given) | -1 |

The results go on.
| SMILES | Calb biofilm kill |
| --- | --- |
| CC(=O)NCCc1c[nH]c2ccc(OCC(O)CNC(C)(C)C)cc12 (stereo not given) | 4 |
| CS(=O)(=O)Nc1ccc(C2=NN(S(C)(=O)=O)C(c3ccc4c(c3)OCO4)C2)cc1 (stereo not given) | 10 |
| O=C1OC(/C=C/c2ccc(Cl)cc2Cl)=NC/1=C\c1cccs1 | 10 |
| O=C(COC(=O)c1cc(=O)c2ccccc2o1)NC1CCCCC1 | 5 |
| CC1=C(C(=O)OC(C)C)C(c2ccc(C)o2)NC(=O)N1 (stereo not given) | 20 |
| C#Cc1ccc([C@@H]2C=C(C(=O)N3CCN(Cc4ccccc4)CC3)O[C@H](OCC)[C@H]2CCCO)cc1 | 18 |
| COc1ccc(N2CCN(C(=S)Nc3ccc(S(N)(=O)=O)cc3)CC2)cc1 | 31 |
| O=C(NNS(=O)(=O)c1ccc(F)cc1)c1cnn(-c2ccccc2)c1C(F)(F)F | 12 |
| COc1ccccc1OCCN(C#N)c1nc(N(C)C)nc(N(C)C)n1 | 26 |
| NC(=O)COC(=O)c1cccc(S(=O)(=O)N2CCN(c3ccccc3)CC2)c1 | -2 |
| O=c1[nH]c(CCC2CCCC2)nc2ccccc12 | 12 |
| O=C(Nc1ccccc1Cl)c1ccccc1 | 11 |
| ClC(Cl)(Cl)c1nc(N/N=C/c2ccncc2)c2ccccc2n1 | -2 |
| Cc1ccc(Cl)cc1NC(=O)N[C@@H](CC(C)C)C(=O)O | -9 |
| COc1ccc(N2CCN(C(CNC(=O)C(=O)NCC3CCCO3)c3ccco3)CC2)cc1 (stereo not given) | 18 |
| CCOC(=O)c1cnc2c(-c3ccc(Cl)cc3)cnn2c1C | -9 |
| O=C(CSc1ccccc1)Nc1cc(S(=O)(=O)N2CCOCC2)ccc1N1CCOCC1 | 1 |
| Cc1c(Cl)cccc1NC(=S)N/N=C/c1ccccc1Cl | 3 |
| Cc1c(O)c2c(=O)n(-c3ccccc3)c(-c3ccccc3)cc2oc1=O | 9 |
| CN1CCN(C(=O)c2cc(Oc3c(F)c(F)c(F)c(F)c3F)cc(C(=O)N3CCN(C)CC3)c2)CC1 | 20 |
| CCOc1ccccc1NC(=O)C(Sc1nnnn1C)c1ccccc1 (stereo not given) | 12 |
| CC(NC(=O)C1c2ccccc2Oc2ccccc21)C1CCCO1 (stereo not given) | -1 |
| COc1ccc(NC(=O)Cn2c(CCC(=O)O)ccc2-c2ccc(C)cc2)cc1 | 4 |
| O=C(NC1CCCC1)c1cc(COc2ccc3ncccc3c2)on1 | 22 |
| COc1ccc(Cc2nc(-c3ccccn3)no2)cc1OC | 7 |
| O=C(O)c1cc2nccc(-c3ccc(F)cc3)n2n1 | 5 |
| O=C1N/C(=C/c2ccc(Br)s2)C(=O)N1c1ccccc1 | 8 |
| Cc1nc(Cl)c(C(=O)NC(=O)Nc2cccc(C(F)(F)F)c2)c(C)c1[N+](=O)[O-] | 19 |
| CC/C(O)=N\S(=O)(=O)c1ccc(N=NN(C)C)cc1 | 9 |
| O=C1N=c2ccc(Br)cc2=C1c1sc(=S)n(NS(=O)(=O)c2ccccc2)c1O | -6 |
| CCOC(=O)C1=C(O)/C(=C/c2ccc(OCC(=O)O)c(OCC)c2)SC1=Nc1ccccc1 | 13 |
| O=C(CCN1C(=O)c2ccccc2C1=O)NCCCn1ccnc1 | 16 |
| O=C(c1ccccc1)N1CCC(=O)N1c1ccccc1 | 16 |
| COc1ccc(NC(=O)CS(=O)CC(=O)NCC2OCCc3ccccc32)cc1 (stereo not given) | 19 |
| Cc1nn(-c2ccccc2)c(C)c1/C=N/NC(=O)c1ccccc1NS(=O)(=O)c1cccs1 | 17 |
| Cc1nc2sc(C(=O)OCC(=O)N3c4ccccc4CC3C)c(C)c2c(=O)[nH]1 (stereo not given) | 5 |
| COc1ccc(C(=O)NCCCn2ccnc2)cc1[N+](=O)[O-] | 14 |
| CC(=O)Nc1ccc(NC(=O)CCCSc2nc3ccccc3s2)cc1 | 9 |
| Cc1cc(C)c(C)c(S(=O)(=O)N[C@@H](C)C(=O)OCC(N)=O)c1C | 13 |
| O=C(c1ccc([N+](=O)[O-])cc1)N(Cc1ccccc1)c1ccccn1 | 17 |
| S=C(Nc1ccc(Cl)cc1Cl)N1CCOCC1 | 12 |
| COc1ccc(CCNC(=O)CSc2ccc(-c3ccccc3)nn2)cc1 | 4 |
| CC(=O)NNC(=S)NC(=O)c1ccc(C)cc1 | 19 |
| Cc1ccc2nc(NC(=O)CC3Oc4ccccc4NC3=O)sc2c1 (stereo not given) | 24 |
| FC(F)(F)c1cnc(N2CCCN(C(=S)Nc3ccccc3)CC2)c(Cl)c1 | 11 |
| Cn1c2c(c(=O)c3ccccc31)CCC(C)(C)O2 | 16 |
| CC(=O)Nc1ccc(N/C(N)=N/c2nc(C)cc(C)n2)cc1 | 11 |
| Cc1cc(C)cc(NC(=O)CC23CC4CC(C2)CC(n2nnc(C)n2)(C4)C3)c1 | 5 |
| CCCNC(=O)COC(=O)c1ccccc1OCC(=O)Nc1ccc(Br)cc1 | 8 |
| CSCCC1COC(c2cccs2)=N1 (stereo not given) | 19 |
| Cc1onc(-c2ccccc2)c1C(=O)/C=C/N(C)C | 14 |
| Cc1ccc(C(=O)N(Cc2ccccc2)C(C)(C)C)cc1C | 18 |
| CC(=O)C1=C(O)C(=O)N(CCO)C1c1ccccc1 (stereo not given) | 15 |
| COC(=O)c1ccc(C(=O)OC)c(NC(=O)C(C)C)c1 | 18 |
| CCc1nnc(NS(=O)(=O)c2ccc(NC(=O)c3cc4ccccc4oc3=O)cc2)s1 | 10 |
| Cn1cc(CN2CCc3c([nH]c4ccccc34)C2C2CCCCC2)cn1 (stereo not given) | 17 |
| CCOC(=O)c1sc2nc(C)nc(N3CCCCC3C)c2c1C (stereo not given) | 14 |
| c1ccc(N2OCC3Cn4c(nc5ccccc54)C32)cc1 (stereo not given) | 1 |
| COCc1ccc(CN2CCCC(CCC(=O)NCc3cccc(OC)c3)C2)o1 (stereo not given) | 18 |
| CCOCCCNC(=S)NCCNc1nc2ccc(C)cc2cc1C#N | 14 |

Sorted by count of non-hydrogen atoms (rising): some entries from above.
| SMILES | Calb biofilm kill |
| --- | --- |
| CC(=O)NNC(=S)NC(=O)c1ccc(C)cc1 | 19 |
| COc1ccc(C(=O)NCCCn2ccnc2)cc1[N+](=O)[O-] | 14 |
| COc1ccc(CCNC(=O)CSc2ccc(-c3ccccc3)nn2)cc1 | 4 |

Remaining list, next part.
| SMILES | Calb biofilm kill |
| --- | --- |
| COc1cccc(CN2C(=O)c3cccc(N)c3C2=O)c1 | 6 |
| O=C(/C=C/c1ccc2ccccc2n1)N1CCN(c2ccccc2)CC1 | 13 |
| CC(C)(C)c1ccc(-c2cnco2)cc1 | 7 |
| COC(=O)[C@@H](NC(=O)O[C@@H]1C(=O)c2ccc(OC)cc2O[C@H]1c1cccc(C(F)(F)F)c1)C(C)C | 12 |
| COc1cc2c(cc1OC)N1C(=O)CC(OCC(=O)O)C3C4CC5(CCN5C(=O)C4=O)C2C31 (stereo not given) | 1 |
| CCOC(=O)C1(CCOc2ccccc2)CCN(Cc2ccc(C)o2)CC1 | 9 |
| COCCNCCOc1ccc(C)cc1[N+](=O)[O-] | 6 |
| CC(C)CN1CCN(Cc2cnc(N3CCOCC3)s2)CC1CCO (stereo not given) | 26 |
| COc1cc(NC(=S)Nc2ccc3c(c2)OCCO3)cc(OC)c1OC | 23 |
| CC(=O)OC(C(=O)NC1CCCCC1)c1ccccc1F (stereo not given) | 27 |
| CCOC(=O)c1cnn(-c2ccccc2)c1-n1cccc1C(=O)C(=O)N(CC)CC | -5 |
| O=C1CN(C(=O)c2cc3ccccc3oc2=O)C(c2ccc(F)cc2)c2cc(Br)ccc2N1 (stereo not given) | 2 |
| CC(C)c1ccccc1NC(=O)Cn1c(/C=C/c2ccccc2)nc2ccccc21 | 21 |
| Oc1c(C(c2ccc(Cl)cc2)N2CCCC2)cc(Cl)c2cccnc12 (stereo not given) | 15 |
| Cc1csc(NC(=O)C2CC(=O)N(Cc3ccco3)C2)n1 (stereo not given) | 9 |
| CCc1ccc(NC(=O)CCc2nc3ccccc3[nH]2)cc1 | 16 |
| Cn1ncc([N+](=O)[O-])c1C(=O)N/N=C/c1c[nH]c2ccccc12 | 21 |
| Cc1ccc(S(=O)(=O)N2CCN(C(=O)c3ccccc3)CC2)c(C)c1NS(C)(=O)=O | 13 |
| O=C(CSc1nnc(C2CC2)n1-c1ccccc1)NCCN1C(=O)CSC1=O | -4 |
| CCCCNC(=S)N/N=C/c1ccc(C#N)cc1 | 7 |
| Cc1ccc(N2C(=O)CCC2(C#N)c2ccccc2)cc1 (stereo not given) | -2 |
| O=C1C=C(O)C(n2cncn2)C(c2cc(F)ccc2F)C1 (stereo not given) | -4 |
| O=[N+]([O-])c1ccccc1CSc1ccccn1 | 8 |
| C=CCS(=O)(=O)N1CCC(CCOc2ccccc2)(C(=O)OCC)CC1 | 14 |
| O=c1c2c3c(sc2ncn1-n1cccc1)CCCCC3 | 16 |
| CN1CCN(CCCNC(=O)c2ccc(/C=C3\Sc4ccccc4N(Cc4ccccc4F)C3=O)cc2)CC1 | 10 |
| CCOc1ccc(-n2c(=O)c3c4c(sc3n(CC(=O)NCCCOC)c2=O)CCCCC4)cc1 | 4 |
| CC(=O)Nc1ccc(CN2CCN(C3CCCCC3)C(CCO)C2)cc1 (stereo not given) | 15 |
| O=C(O)c1cccc(N/C(=N\S(=O)(=O)c2ccccc2)c2ccccc2)c1 | 12 |
| NC(=S)N/N=C/c1cccc(/C=N/NC(N)=S)c1 | 18 |
| O=C(NCCCl)c1ccc(OCc2ccccc2)cc1Cl | 6 |
| CCOC(=O)N/N=C1\CC(C)S(=O)(=O)c2ccc(Cl)cc21 (stereo not given) | 14 |
| CCN(CC)CCN(Cc1cc2cc(C)cc(C)c2[nH]c1=O)C(=S)NCc1ccco1 | 19 |
| O=C(/C=C/c1cccc(OCc2ccccc2)c1)c1cccnc1 | 15 |
| CN(C(=O)C1CCC1C(=O)O)c1nc(-c2ccc(Cl)s2)cs1 (stereo not given) | 21 |
| COCCNC(=O)C1CC2Cn3c(nc4cc(C)c(C)cc43)C2N1C (stereo not given) | 19 |
| Cc1ccc(N(CC(=O)NCCSc2ccccn2)S(=O)(=O)c2ccc(F)cc2)cc1 | 15 |
| CCCc1cc(=O)[nH]c(SCc2cccnc2)n1 | 14 |
| S=C1NCN(Cc2ccco2)CN1c1cccc2ccccc12 | 17 |
| O=C(CSc1nc2ccccc2n1Cc1ccc(Cl)cc1)N/N=C/c1ccc(C(=O)O)cc1 | 7 |
| Cc1nnc(SCC(=O)N(C)c2ccccc2)n1Cc1ccccc1 | 4 |
| CC(C)CCNC(=O)C(=O)NC1CCCC1 | 10 |
| CCOCCCNCc1cccc(OCc2ccc(F)cc2)c1 | 12 |
| CCCC(=O)c1c(NCCO)cc(C)oc1=O | 0 |
| C/C(=N\N=C1\NC(=O)C(CC(=O)O)S1)c1ccccn1 (stereo not given) | 2 |
